VDR inh: vitamin D3 receptor (human) inhibition. VDR-SRC2-3 peptide fluorescence polarization, 2 h. P11473. Potency, µM, without a hit: max response, negative = inhibition, hits mostly inhibitors. AID 504847. hit rate 0.93% among 400,000; active means well fitted inhibition curve with a large enough effect; inconclusive means small, poorly fitted or top-dose-only effect, or another doubt; inactive means no such curve, though single readings can be large or run the other way; further: series mostly up to about 120 µM
Target sequence (P11473 whole entry, looked up): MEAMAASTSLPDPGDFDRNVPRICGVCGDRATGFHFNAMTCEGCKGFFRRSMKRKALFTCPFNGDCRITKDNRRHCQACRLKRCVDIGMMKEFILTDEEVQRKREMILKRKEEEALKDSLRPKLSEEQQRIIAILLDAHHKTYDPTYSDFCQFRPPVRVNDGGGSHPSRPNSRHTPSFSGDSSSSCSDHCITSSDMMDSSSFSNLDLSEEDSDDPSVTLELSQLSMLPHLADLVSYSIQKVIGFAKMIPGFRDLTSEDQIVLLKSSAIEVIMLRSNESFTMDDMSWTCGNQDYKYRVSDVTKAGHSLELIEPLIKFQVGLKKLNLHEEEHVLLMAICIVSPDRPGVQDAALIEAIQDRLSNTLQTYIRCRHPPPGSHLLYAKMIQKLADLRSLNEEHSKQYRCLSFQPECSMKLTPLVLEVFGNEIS
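The screen uses fluorescence polarization to detect compounds that interfere with recruitment of the SRC2-3 coactivator peptide to VDR; plates are read after 2 h at room temperature.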
* marks the source's active call; other numbers are inactive results; & = joins results of further samples. On the % scale 0 is the no-effect control and ±100 the full control effect; potency means the concentration at half of the fitted maximal effect. Only part of the results is shown; count on the stated rates, not on these rows.

COc1ccc(C(=O)N/C(=C\c2cn(S(=O)(=O)N(C)C)c3ccccc23)C(=O)NCCCN2CCOCC2)cc1 was read as VDR inh 10%.
Screening CN(C(=O)c1cc2c(s1)-c1ccccc1S(=O)(=O)C2)c1ccccc1 returned VDR inh 10%.
For COCCN(CC(=O)Nc1ccccc1)S(=O)(=O)c1ccc(S(=O)(=O)N2CCCC2)cc1 the results were VDR inh -4%.
O=C(O)CCc1c(C(=O)O)[nH]c2ccccc12 was read as VDR inh 10%.
For CC(C)(C)n1nnnc1C(c1ccc(F)cc1)N(Cc1ccc(F)cc1)Cc1ccco1 (centres undefined) the results were VDR inh 11%.
For CC1CCC(C(C)C)C(OCC(O)C[N+]2(C)CCCCC2)C1 (centres undefined) the results were VDR inh -8%.
For Cc1[nH]c2ccccc2c1C(=O)CSc1n[nH]c(N)n1 the results were VDR inh -12%.
`CCC(=O)N1CCN(c2ccc(NC(=S)NC(=O)COc3ccccc3)cc2)CC1` gave VDR inh -7%.
Screening CCNc1ncc2nc(-c3cn(C)c4ccccc34)c(=O)n(Cc3cccc(OC)c3)c2n1 returned VDR inh -20%.
`CCN(CC)c1ccc2cc(S(=O)(=O)c3ccc(C)cc3)c(=O)oc2c1` gave VDR inh -8%.
Screening COC(=O)c1ccc(NC(=O)NS(=O)(=O)c2ccc(C)cc2)cc1 returned VDR inh -6%.
Screening CCOc1ccc(N(C)S(=O)(=O)c2ccc(C)c(C(=O)NCc3ccccc3OC)c2)cc1 returned VDR inh 0%.
Screening Cc1nc(N2CCc3ccccc3C2)[nH]c(=O)c1CCC(C)C returned VDR inh 5%.
`COCC(C)N=C1NN=C(c2c[nH]c3ccccc23)CS1` (centres undefined) gave VDR inh -7%.
CC(C)c1ccc(COc2ccc(C(=O)N3CCOCC3)cc2)cc1 was read as VDR inh -12%.
Screening CC(=O)c1ccc(NC(=O)C2C3C=CC(O3)C2C(=O)O)cc1 (centres undefined) returned VDR inh 14%.
Cc1ccc2oc3c(c(=O)c2c1)C(c1ccc(OCC(N)=O)cc1)N(Cc1ccc2c(c1)OCO2)C3=O (centres undefined) was read as VDR inh -4%.
Screening CCN(CC)c1ccc(S(=O)(=O)Nc2cc(Cl)ccc2Cl)cc1NC(=S)NC(=O)C1CCCC1 returned VDR inh -24%.
For Cc1cccc(N(CC(=O)NC2CCCC2)C(=O)c2cc3cc4cccc(C)c4nc3s2)c1C the results were VDR inh 3%.
For CC(=O)Nc1c(NC(C)C)c2ccccc2oc1=O the results were VDR inh 26%.
For CCc1ccc(C(=O)COC(=O)CNC(=O)C2CCCCC2)cc1 the results were VDR inh inconclusive.
COc1ccc(C(=O)OCc2c(F)cccc2Cl)cc1S(=O)(=O)N1CCOCC1 was read as VDR inh -23%.
Screening CCOC(=O)c1[nH]ncc1CN1CCCC(C(=O)c2ccc(OC)cc2C)C1 (centres undefined) returned VDR inh 4%.
COc1cccc(CNc2ncn[nH]2)c1OCc1ccccc1F was read as VDR inh -17%.
Screening COC(=O)Nc1nnc(Cc2ccc(OC)cc2)s1 returned VDR inh -8%.
OCc1n[nH]c(CO)n1 was read as VDR inh 12%.
Screening O=C(CCCN1C(=O)c2cccc3cccc(c23)C1=O)N1CCN(c2ccccc2O)CC1 returned VDR inh -9%.
CCN(CC)c1ccc(C(=O)OCc2c(C)noc2C)cc1 was read as VDR inh -22%.
COc1ccc(NC2=NCCC2)cc1 was read as VDR inh -9%.
For COC(=O)c1ccc(NC2c3ncccc3C(=O)N2Cc2cccs2)cc1 (centres undefined) the results were VDR inh -11%.

Retrieved one by one from the list above:
COc1cccc(CNc2ncn[nH]2)c1OCc1ccccc1F was read as VDR inh -17%.
Screening CCN(CC)c1ccc(S(=O)(=O)Nc2cc(Cl)ccc2Cl)cc1NC(=S)NC(=O)C1CCCC1 returned VDR inh -24%.

Remaining list, next part:
For CCOc1ccccc1-n1c(COc2ccc(C)cc2)nnc1SCC(N)=O the results were VDR inh 2%.
For COc1ccc(S(=O)(=O)N2CCN(CC(=O)Nc3sccc3C(N)=O)CC2)cc1OC the results were VDR inh -6%.
`Cn1nnnc1SCC(=O)c1c(N)n(C)c(=O)n(C)c1=O` gave VDR inh -5%.
`COc1cccc(CNC(=O)CCC2CCCN(Cc3ccc4c(c3)CCO4)C2)c1` (centres undefined) gave VDR inh -12%.
Screening CCCCNCc1cc(OCC)c(OCC(N)=O)cc1Br returned VDR inh 8%.
Cc1[nH]c(=O)c(C#N)cc1-c1csc(-c2ccccc2)n1 was read as VDR inh 4%.
COc1ccc(C(=O)c2cnc(/N=C/N(C)C)s2)cc1 was read as VDR inh -2%.
`CCC(C(=O)NCCCN(CC)Cc1ccccc1)n1nc(C)c2sc3ccccc3c2c1=O` (centres undefined) gave VDR inh 18%.
Screening CC(C(=O)OCc1nnc(-c2ccccc2)o1)N1C(=O)c2ccccc2C1=O (centres undefined) returned VDR inh 0%.
COc1ccc(N2CCN(C(=O)Cn3nnc(-c4cccs4)n3)CC2)cc1 was read as VDR inh 3%.
`CCN1CCc2c(sc(NC(=O)C3COc4ccccc4O3)c2C(N)=O)C1` (centres undefined) gave VDR inh 8%.
`CCN(CC)c1ccc(NC(=O)c2ccc(S(=O)(=O)N3CCOCC3)cc2)cc1` gave VDR inh 0%.
Cn1ccnc1SCC(=O)Nc1ccc2nc(SCC(=O)NC3CC3)sc2c1 was read as VDR inh 14%.
For CN1CCC(=NNC(=O)C(=O)NC2CCCC2)CC1 the results were VDR inh -2%.
CCOc1ccc(S(=O)(=O)N2CCN(c3nc(-c4ccccc4)nc4ccccc34)CC2)cc1OCC was read as VDR inh -21%.
Screening CC(C)CCNC(=O)CN1C(=O)c2cccnc2Sc2ccccc21 returned VDR inh 11%.
`CCC(CC)c1ncc[nH]1` gave VDR inh -29%.
Screening COc1ccc(-c2nn(C)c3sc(C(=O)N4CCN(c5cc(Cl)ccc5C)CC4)cc23)cc1OC returned VDR inh -3%.
O=c1[nH]c(CSc2nnc(Cc3ccccc3)o2)nc2ccccc12 was read as VDR inh -7%.
O=C(OCC(=O)N1CCCCC1)c1ccccc1SCC(=O)N1CCCCC1 was read as VDR inh inconclusive.
Screening COc1ccc(/C(C)=N/N=C2/NC(=O)CC(C(=O)O)S2)cc1 (centres undefined) returned VDR inh inconclusive.
For CN(CCCNC(=O)CN1C(=O)CC(C)(C)S(=O)(=O)c2ccccc21)C1CCCCC1 the results were VDR inh 15%.
Screening COc1ccc(C2/C(=C(\O)c3cc(C)ccc3C)C(=O)C(=O)N2CCN(C)C)cc1OC (centres undefined) returned VDR inh -12%.
C=CCn1c(SC)nnc1-c1cccc([N+](=O)[O-])c1 was read as VDR inh 1%.
`O=C(NCc1ccc(N2CCCC2=O)cc1)c1cn(CCc2ccccc2)nn1` gave VDR inh -5%.
O=C1CC(c2ccccc2)N1c1ccccc1 (centres undefined) was read as VDR inh -17%.
`C[C@H](C(=O)NCc1ccccc1)C(=O)c1ccccc1` gave VDR inh 4%.
Screening CCOc1ccc(C(=O)NCC(c2cccs2)N2CCOCC2)cc1 (centres undefined) returned VDR inh -2%.
Screening CC(=O)N1CCN(S(=O)(=O)c2ccc3c(c2)OCCO3)CC1 returned VDR inh 7%.
CC1CCCN(C(=O)c2ccc(NC(=O)CC3SC(N4CCCC4)=NC3=O)cc2)C1 (centres undefined) was read as VDR inh -10%.
For C=CCOC(=O)Nc1snnc1C the results were VDR inh -4%.
`COc1ccc(OCC(=O)Nc2ccccc2C(=O)N2CCCC2)cc1` gave VDR inh -10%.
Screening O=C(NCC1(c2ccccc2)CCCC1)C1(c2ccccc2)CCCC1 returned VDR inh -3%.
Screening C=CC[C@H]1Cc2c(cccc2[N+](=O)[O-])[C@H](CC=C)N1 returned VDR inh 20%.
Cn1[nH]c(=O)c2ccccc2c1=O was read as VDR inh 24%.
Screening CCC(C)Cn1c(O)cc2nn(-c3nc4ccccc4s3)c(=O)c-2c1C (centres undefined) returned VDR inh inconclusive.
`Nn1c(SCC(=O)Nc2ccc(F)cc2F)nnc1-c1cccnc1` gave VDR inh 10%.
For CSc1ncc(C(=O)Nc2cccc(Cl)c2C)c(-c2ccccc2)n1 the results were VDR inh -9%.
Screening NC(=O)CSc1nnnn1-c1cccc(O)c1 returned VDR inh 0%.
For CCCCCn1c(CN2CC(C)OC(C)C2)nc2c1c(=O)n(C)c(=O)n2C (centres undefined) the results were VDR inh 12%.
Screening Cc1c(C(=O)OCC2CCCO2)[nH]c2c1C(=O)CC(c1ccc(N(C)C)cc1)C2 (centres undefined) returned VDR inh -2%.
Cn1c(=O)c(=O)n(C)c2cc(S(=O)(=O)NCCOc3ccccc3Cl)ccc21 was read as VDR inh 5%.
`CC1CCN(S(=O)(=O)c2ccc3c(c2)N(CC(=O)N2CCN(c4ccccc4)CC2)C(=O)CO3)CC1` gave VDR inh 7%.
`CCOc1ccc(N(CC(=O)NCc2cccnc2)S(=O)(=O)c2ccc(F)cc2)cc1` gave VDR inh -10%.
Screening COc1ccc(C(=O)CN2C(=O)NC(C)(c3ccccc3)C2=O)cc1OC (centres undefined) returned VDR inh 14%.

Among those listed so far, these contain an aryl thioether with sulfur outside any ring.
For Cc1[nH]c2ccccc2c1C(=O)CSc1n[nH]c(N)n1 the results were VDR inh -12%.
For CCOc1ccccc1-n1c(COc2ccc(C)cc2)nnc1SCC(N)=O the results were VDR inh 2%.
`Cn1nnnc1SCC(=O)c1c(N)n(C)c(=O)n(C)c1=O` gave VDR inh -5%.
Cn1ccnc1SCC(=O)Nc1ccc2nc(SCC(=O)NC3CC3)sc2c1 was read as VDR inh 14%.
O=c1[nH]c(CSc2nnc(Cc3ccccc3)o2)nc2ccccc12 was read as VDR inh -7%.
O=C(OCC(=O)N1CCCCC1)c1ccccc1SCC(=O)N1CCCCC1 was read as VDR inh inconclusive.
C=CCn1c(SC)nnc1-c1cccc([N+](=O)[O-])c1 was read as VDR inh 1%.
`Nn1c(SCC(=O)Nc2ccc(F)cc2F)nnc1-c1cccnc1` gave VDR inh 10%.
For CSc1ncc(C(=O)Nc2cccc(Cl)c2C)c(-c2ccccc2)n1 the results were VDR inh -9%.
Screening NC(=O)CSc1nnnn1-c1cccc(O)c1 returned VDR inh 0%.

Next results
Screening CCn1cc(CNC(=O)c2c(-c3c(Cl)cccc3Cl)noc2C)c(C)n1 returned VDR inh -3%.
Screening Cc1sc2ncn(CC(=O)N3CCN(c4ccccc4F)CC3)c(=O)c2c1S(=O)(=O)N1CCN(c2ncccn2)CC1 returned VDR inh -2%.
For O=C(O)CCCCC1CCSS1 (centres undefined) the results were VDR inh 3%&-17%.
CCOc1ccc(-c2nonc2NC(=O)c2oc3cc(C)ccc3c2C)cc1OCC was read as VDR inh 3%.
Screening Nc1c(C(=O)OCC2CCCO2)c2nc3ccccc3nc2n1C1CCCCC1 (centres undefined) returned VDR inh inconclusive.
Screening CN(C)c1ccc2nc3c(=O)[nH]c(=O)nc-3n(CC(O)C(O)C(O)CO)c2c1 (centres undefined) returned VDR inh -21%.
`O=C(NC1CCCC1)C1CCCN1S(=O)(=O)c1cccc2cccnc12` (centres undefined) gave VDR inh -21%.
`COc1ccc(C(=O)COC(=O)C2COc3ccccc3O2)cc1F` (centres undefined) gave VDR inh 5%.
`Cc1ccc2nc(N3CCN(C(=O)CCCC(=O)O)CC3)nc(-c3ccccc3)c2c1` gave VDR inh -1%.
CN(C)c1cccc(C(=O)N/N=C/c2ccsc2)c1 was read as VDR inh -16%.
Screening O=C(O)C1CSC(c2ccc3c(c2)OCO3)N1 (centres undefined) returned VDR inh inconclusive.
For Cc1ccc(-c2cn(-c3ccccc3)c(SCC(N)=O)n2)cc1C the results were VDR inh -9%.
CC(SC(C)C(=O)NN=Cc1cccc(F)c1)C(=O)NN=Cc1cccc(F)c1 (centres undefined) was read as VDR inh 3%.
For Cn1c(SCC(=O)Nc2cc(C(C)(C)C)nn2-c2ccccc2)nc2ccccc21 the results were VDR inh -13%.
`CC(Oc1cc2oc(=O)c3c(c2cc1Cl)CCC3)C(=O)NCc1ccccn1` (centres undefined) gave VDR inh 3%.
Screening S=c1[nH]nc(-c2ccc(Cl)cc2)n1Cc1ccccc1 returned VDR inh -1%.
`O=C(Nc1cc(Cl)ccc1N1CCOCC1)c1cnccn1` gave VDR inh 7%.
Screening CC(=O)Nc1ccc(S(=O)(=O)Oc2ccc(/C=N/NC(=O)c3ccc(Cl)cc3)cc2)cc1 returned VDR inh 7%.
CC(CC(=O)N(CCC1=CCCCC1)c1c(N)n(Cc2ccccc2)c(=O)[nH]c1=O)c1ccccc1 (centres undefined) was read as VDR inh -25%.
For CC(C)(C)NC(=O)CN(C(=O)C1CSC(=O)C1)c1ccc2c(c1)OCCO2 (centres undefined) the results were VDR inh 0%.
Screening CCN(CC)CCSc1nc2ccccc2n1Cc1ccccc1 returned VDR inh inconclusive.
COc1ccc(S(=O)(=O)N(C)C[C@H]2Oc3c(NC(=O)Nc4ccccc4)cccc3C(=O)N([C@H](C)CO)C[C@@H]2C)cc1 was read as VDR inh -8%.
`CC(CSc1nnnn1-c1ccccc1)Cn1c(N2CCCC2)nc2c1c(=O)[nH]c(=O)n2C` (centres undefined) gave VDR inh 10%.
For CSC1=NCCN1S(=O)(=O)c1ccccc1 the results were VDR inh 0%.
`CC(C)NC(=O)c1ccc(N(Cc2ccc(Cl)cc2)S(C)(=O)=O)cc1` gave VDR inh 15%.
`CC(=O)N(Cc1ccccc1)c1ncc2c(n1)c(=O)c(C#N)c1ccccn12` gave VDR inh -6%.
Screening CC(=O)N1CCc2c(sc3c2c(=O)n(-c2cccc(Cl)c2C)c(=O)n3Cc2ccccc2C)C1 returned VDR inh 12%.
For CC(=O)Nc1ccc(S(=O)(=O)N2CCC(C(=O)NCCC(=O)Nc3nccs3)CC2)cc1 the results were VDR inh -5%.
Screening COc1ccc2c(c1)Cc1sc(NC(=O)c3cccc(Br)c3)nc1-2 returned VDR inh 1%.
